# H5N1 antiviral = antiviral screen in MDCK cells, H5N1 avian flu; cytopathic effect, luminescence, 72 h; hits give high values; no value below 0 was filed and about half of the inactive calls have no number; reference of the scale not given here; inhibition, % at 50 µM; 96,000 tested, 0.07% active; AID 740; in the data active = inhibition above about 25%
# Numbers without * were called inactive; i = inactive.
# Preview (18 entries):
SMILES,H5N1 antiviral
O=C(O)CSC(C(=O)Nc1ccc(C(F)(F)F)cc1)c1ccccc1 (stereo unspecified),i
O=C(COc1ccccc1Cl)N1CCN(c2ccc(F)cc2)CC1,0.6
CCC(C)NC(=O)c1ccccc1NC(=O)CN1C(=O)c2ccccc2S1(=O)=O (stereo unspecified),0.2
CCOc1cccc(OCCOCCn2cnc3ccccc3c2=O)c1,i
COc1ccccc1N1CCN(CC(=O)Nc2ccc(CN3CCCCC3)cc2)CC1,i
COCCNC(=O)c1c(NC(=O)c2nc(SC)ncc2Cl)sc2c1CCCC2,2.3
CCCc1nc(SCc2ccccc2Cl)n[nH]1,i
COc1ccc(S(=O)(=O)N2CCN(c3ccc4nnc(-c5ccccc5)n4n3)CC2)cc1,5.5
CC(NC(=O)c1ccco1)C(=O)N1CCc2ccccc2C1 (stereo unspecified),i
O=C(CSc1ccc2c(c1)OCCO2)NC(=O)NC1CCCC1,1.3
Cc1cc(C)n2nc(SCC(=O)N(C(C)C)C(C)C)nc2n1,0.6
O=C(OCC(=O)N1CCCC1)c1cncc(Br)c1,1.7
Cc1cc(C)c(C#N)c(SCS(=O)Cc2ccc(Cl)cc2)n1 (stereo unspecified),i
CCCc1[nH]nc2c1C(c1ccccc1OCC)C(C#N)=C(N)O2 (stereo unspecified),0.9
CCc1nc(SCC(=O)Nc2ccnc3ccccc23)n[nH]1,1.3
CCOC(=O)c1c(C)c(C(=O)Nc2ccc3c(c2)OCCO3)c(C)n1CC,i
CCOc1ccc(CC(C(=O)NN)C(=O)NN)cc1CN(C)C,0.4
Cc1sc(/N=C/c2c(O)ccc3ccccc23)c(C#N)c1C,0.3

# Main list, from the first entry:
SMILES,H5N1 antiviral
O=C(O)CSC(C(=O)Nc1ccc(C(F)(F)F)cc1)c1ccccc1 (stereo unspecified),i
O=C(COc1ccccc1Cl)N1CCN(c2ccc(F)cc2)CC1,0.6
CCC(C)NC(=O)c1ccccc1NC(=O)CN1C(=O)c2ccccc2S1(=O)=O (stereo unspecified),0.2
CCOc1cccc(OCCOCCn2cnc3ccccc3c2=O)c1,i
COc1ccccc1N1CCN(CC(=O)Nc2ccc(CN3CCCCC3)cc2)CC1,i
COCCNC(=O)c1c(NC(=O)c2nc(SC)ncc2Cl)sc2c1CCCC2,2.3
CCCc1nc(SCc2ccccc2Cl)n[nH]1,i
COc1ccc(S(=O)(=O)N2CCN(c3ccc4nnc(-c5ccccc5)n4n3)CC2)cc1,5.5
CC(NC(=O)c1ccco1)C(=O)N1CCc2ccccc2C1 (stereo unspecified),i
O=C(CSc1ccc2c(c1)OCCO2)NC(=O)NC1CCCC1,1.3
Cc1cc(C)n2nc(SCC(=O)N(C(C)C)C(C)C)nc2n1,0.6
O=C(OCC(=O)N1CCCC1)c1cncc(Br)c1,1.7
Cc1cc(C)c(C#N)c(SCS(=O)Cc2ccc(Cl)cc2)n1 (stereo unspecified),i
CCCc1[nH]nc2c1C(c1ccccc1OCC)C(C#N)=C(N)O2 (stereo unspecified),0.9
CCc1nc(SCC(=O)Nc2ccnc3ccccc23)n[nH]1,1.3
CCOC(=O)c1c(C)c(C(=O)Nc2ccc3c(c2)OCCO3)c(C)n1CC,i
CCOc1ccc(CC(C(=O)NN)C(=O)NN)cc1CN(C)C,0.4
Cc1sc(/N=C/c2c(O)ccc3ccccc23)c(C#N)c1C,0.3
CCCCc1nc(SCC(=O)Nc2cc(C)on2)n[nH]1,0.7
COc1ccc(OC)c(NC(=O)c2ccccc2NS(=O)(=O)c2cccc3cccnc23)c1,1.7
O=C(NCCCN1CCOCC1)C1CC(=O)N(C2CCCCC2)C1 (stereo unspecified),0.2
CC1CCCC(C)N1CCNC(=O)C1CCN(S(=O)(=O)N2CCCCC2)CC1 (stereo unspecified),i
CC1CCN(C(=O)CSc2nc(N)c3c4c(sc3n2)CN(C)CC4)CC1,1.9
Clc1cccc(COn2c(-c3ccc(Cl)cc3Cl)nc3ncccc32)c1,1.6
O=C(Nc1cccnc1)c1coc(=O)c2ccccc12,0.4
# The listing continues.
SMILES,H5N1 antiviral
O=S(=O)(c1ccccc1)c1nc(-c2ccccc2)oc1N1CCCCC1,0.7
O=C(COc1ccccc1-c1ccccc1)N/N=C/c1cccc2ccccc12,i
CCn1c(SCC(=O)Nc2ccc3c(c2)oc2ccccc23)nnc1-c1ccc(N)cc1,i
COc1ccc2c(c1)cc1n2CCN=C1N,i
Cc1cc(C)c2nc(N3CCC(C(=O)N4CCCC4)CC3)sc2c1,1.3
CC1=C(C(=O)NCCCOC(C)C)C2(CCC(C)CC2)OC1=O (stereo unspecified),1.6
CCN(CC)CCCn1c(=S)[nH]c2ccccc2c1=O,0.4
Clc1cccc(OCCn2cncn2)c1Cl,0.5
Cc1cc(C(F)(F)F)nn1CC(=O)NNC(=S)Nc1ccc(Cl)cc1,i
CCC(=O)N1CCc2cc(S(=O)(=O)NC(Cc3ccccc3)C(=O)NC3CCCC3)ccc21 (stereo unspecified),i
CCCCCn1c(C(Cc2ccccc2)NC(=O)COC)nc2ccccc21 (stereo unspecified),1.6
COC(=O)c1ccc(CN2CCN(Cc3ccccc3)CC2)cc1,0.1
Cn1cccc1Cc1nnc(SCC(=O)N2CCc3ccccc32)n1-c1ccc(F)cc1,i
CCSc1nc2ccccc2n1C(=O)/C=C\c1ccc(OC)c(OC)c1,4.8
CC(C)c1nc2oc3c(NCC4CCCO4)ncnc3c2c2c1COC(C)(C)C2 (stereo unspecified),3.2
Cc1ccc(NC(=O)c2c(C)nn(-c3ccccc3)c2Cl)c(C)c1,0.6
c1ccc(-c2nc3ccccc3s2)nc1,0.2
COc1cc(CSc2nnnn2-c2ccc(C)cc2)cc(OC)c1OC,1.1
O=C(O)/C(=C\c1ccco1)NC(=O)c1cccc2ccccc12,1.2
Cc1ccc(C(=O)Oc2ccccc2N2C(=O)C3CCCCC3C2=O)cc1 (stereo unspecified),i
COc1ccc(OC)c(C(=O)CC2OC(=O)c3ccccc32)c1 (stereo unspecified),i
Cc1cnc(NC(=O)c2cc3c(s2)CCCC3)s1,i
C=C(C)Cn1c(-c2ccc(OC)cc2)nc2ccccc21,4.8
O=C(O)CC(Cn1[nH]nnc1=S)c1ccccc1 (stereo unspecified),1.6
Cn1cc(SCC(=O)O)c2ccccc21,0.2
# Next part:
SMILES,H5N1 antiviral
Cn1c(NC(=O)C2CCCC2)cc(=O)n(C)c1=O,0.5
CCOC(=O)c1sc(/N=C/N(C)C)c(C(=O)OCC)c1C,i
Cc1c(C(=O)N2CCC3(CC2)OCCO3)oc2ccccc12,i
O=c1ccc(=O)n2n1CC(O)C2,i
Nc1cnn(C2CCCO2)c(=O)n1 (stereo unspecified),i
Cc1cccc(C(=O)OCC(=O)Nc2ccc(N3CCCCC3)cc2)c1O,i
Oc1[nH]c2ccccc2c1N=Nc1nc2ccccc2s1,i
CCCn1c(-c2ccc(F)cc2)n[nH]c1=S,0.2
CCOC(=O)c1ccc(N2C(=O)CC(NC3CCN(C(=O)c4cccc(Cl)c4)CC3)C2=O)cc1 (stereo unspecified),i
O=C(O)C1CCCCC1C(=O)Nc1nccs1 (stereo unspecified),i
O=C(NCCCN1CCOCC1)c1cc(-c2ccc(Br)cc2)on1,i
Cc1ccc2c(C)c(C(=O)N(Cc3cccs3)C3CCS(=O)(=O)C3)oc2c1 (stereo unspecified),3.0
CSc1nsc(SCc2cnc(C)nc2N)n1,i
CCOc1ccccc1-n1c(SCC(N)=O)nc2ccccc2c1=O,i
CCCC(=O)C1=C(O)C(C(=O)OC)C(C)(C)CC1=NC (stereo unspecified),0.1
O=C(NCc1cccnc1)c1ccc(NC(=O)c2ccco2)cc1,i
O=C(Nc1ccc2oc(-c3ccccc3)nc2c1)c1cccnc1,1.0
CCN(CC)S(=O)(=O)c1cc(C(=O)Oc2cccc(-c3cnc4ccccc4n3)c2)ccc1Br,2.6
O=C(COc1ncnc2ccccc12)N1CCN(C(=O)c2ccco2)CC1,0.1
CCCCCOc1ccc(NS(C)(=O)=O)cc1,i
Cc1cc(C)c(S(=O)(=O)c2c(C)cccc2C)c(OCC(C)C)n1,9.3
Cc1ccc(OCCN2C(=O)c3ccccc3C2=O)c(C)c1,0.2
CCCC1(C(=O)OCC)NC(c2ccc(O)cc2)C2C(=O)N(c3ccc4c(c3)OCCO4)C(=O)C21 (stereo unspecified),1.1
CCOC(=O)c1cnc2c(c(C)nn2C)c1Oc1ccc(Cl)cc1,5.0
Cc1ccc(C(=O)COc2cccc(NC(=O)c3ccco3)c2)cc1,i
# New compounds follow
SMILES,H5N1 antiviral
CCOC(=O)N1CCN(S(=O)(=O)c2ccc3c(c2)SCC(=O)N3)CC1,3.4
O=C(CN1C(=O)NC2(CCCC2)C1=O)Nc1cccc(-c2nnc3n2CCCCC3)c1,i
COc1ccccc1C(c1nnnn1C(C)(C)C)N1CCCc2ccccc21 (stereo unspecified),0.9
CCCCC(NC(=O)c1ccccc1)C(=O)OCC(=O)N1c2ccccc2Sc2ccccc21 (stereo unspecified),i
O=C(c1cccc(S(=O)(=O)N2CCOCC2)c1)N1CCCc2ccccc21,0.6
O=C1CCC(=O)N1c1ccccc1-c1ccccc1,0.3
Nc1ccccc1-c1nnc(SCc2ccccc2F)[nH]c1=O,0.4
CC(C)C1N(S(=O)(=O)c2ccccc2)CCN1S(=O)(=O)c1ccccc1,0.2
Cc1ccc(Nc2nc(N)nc(CN3CCN(Cc4ccc5c(c4)OCO5)CC3)n2)cc1,i
C/C(NCc1ccccc1)=C(\C#N)C(=O)NCc1ccccc1,0.5
Cc1n[nH]c(C)c1S(=O)(=O)N1CCOCC1,i
Cc1ccc(NC(=S)NC2CC3CCC(C2)N3Cc2ccco2)c(C)c1 (stereo unspecified),i
COc1ccc(NC(=O)C2CCN(C(=O)c3cccs3)CC2)cc1OC,0.1
FC(F)Oc1ccc(-c2csc(Cc3nnc4n3CCCCC4)n2)cc1,0.7
COC(=O)C1(CCSC)NC(c2ccc(O)cc2)C2C(=O)N(c3ccc4c(c3)OCCO4)C(=O)C21 (stereo unspecified),1.1
COc1ccccc1C(=O)N1CCN(c2cccc(Cl)c2)CC1,0.6
N#Cc1ccc(OCC(=O)NCCc2ccc(S(N)(=O)=O)cc2)cc1,0.4
CCOc1nc(SCCOc2ccccc2)nc(N(C)C)n1,i
CCOC(=O)C1=C(C)N=c2s/c(=C\c3cccn3C)c(=O)n2C1c1cccc(OC)c1OC (stereo unspecified),i
CCOC(=O)COc1ccc(Cl)cc1C1NC(=O)NC(C)=C1C(C)=O (stereo unspecified),0.0
Cc1ccc(CCNC(=O)C2CCN(C(=O)c3sccc3-n3cccc3)CC2)cc1,1.6
CSc1ccccc1C(=O)NC1CC2CCC1C2 (stereo unspecified),i
CN(C)c1ncnc2c1ncn2C1OC(CO)C(O)C1O (stereo unspecified),i
O=C(Nc1nnc(-c2ccccc2)o1)NC1CCCCC1,1.9
CC1CC(=O)c2cnc(NCC3CCCO3)nc2C1 (stereo unspecified),0.3
# The list goes on:
SMILES,H5N1 antiviral
COc1cccc(N2C(=O)C(CC(=O)Nc3ccc(F)cc3)N(C3CCCCC3)C2=O)c1 (stereo unspecified),i
COc1ccc(S(=O)(=O)Nc2ccc(F)c(F)c2)cc1Cl,0.8
C=CCNC(=O)c1c(N)n(Cc2ccco2)c2nc3ccccc3nc12,i
O=C1C2CCCN2C(c2cccs2)N1c1ccccn1 (stereo unspecified),i
CCCCNC(=O)c1onc(CSc2cccc(OC)c2)c1C(=O)O,0.0
CC(C)CC(=O)Nc1ccc2c(c1)oc1ccccc12,0.6
O=C(Nc1ccc2c(c1)OCO2)C1CCN(c2ccc(S(=O)(=O)N3CCOCC3)cc2)CC1,0.3
COc1ccc(-c2nc3cnccn3c2Nc2ccc3c(c2)OCO3)cc1,1.5
O=C(O)C1C2C=CC3(O2)C1C(=O)N1c2ccccc2COC13 (stereo unspecified),1.6
COc1ccc(C2(C)NC(=O)N(CC(=O)NCCC3=CCCCC3)C2=O)cc1OC (stereo unspecified),i
CCOc1ccc(C2N(c3cc(C)on3)C(=O)C3CCCN32)cc1OC (stereo unspecified),i
CCNC(=O)N1C(=O)C2(OCCO2)c2ccccc21,0.5
COc1ccccc1CNCc1cc(OC)c(OC)cc1OC,1.1
N=c1c2c3c(sc2ncn1N)CCCCC3,0.5
COc1ccc2c(c1)C1NC(=S)N[C@@](C)(O2)C1C(=O)Nc1ccccc1 (stereo partly specified),i
COc1ccc(NC(=O)c2ccco2)cc1NC(=O)c1cccs1,i
Cc1cccc(NC(=O)c2ccc(-n3cccn3)c([N+](=O)[O-])c2)c1,i
CC(=O)Nc1ccc(S(=O)(=O)N2CCN(C(=O)N3CCOCC3)CC2)cc1,0.9
CCN(CC)CCNS(=O)(=O)c1ccc(Cl)cc1,0.1
CC(C)CNC(=S)NC(=O)c1ccc([N+](=O)[O-])cc1,0.6
CC(NC(=O)c1ccc(C(C)(C)C)cc1)C(=O)O (stereo unspecified),0.1
COc1ccc(NC(=O)c2sc(SCc3ccccc3)nc2N)cc1,i
O=c1[nH][nH]c(C(F)(F)F)c1C=Nc1ccc(Cl)cc1,i
O=C1c2ccccc2C(=O)N1CCc1nc(-c2ccccn2)no1,i
Cc1ccc(C2/C(=C(\O)c3ccc4c(c3)OCCO4)C(=O)C(=O)N2CCCN(C)C)o1 (stereo unspecified),0.4
# The results go on.
SMILES,H5N1 antiviral
O=C(O)CCCCCN=C1CCc2ccccc2N1,i
C=CCn1c2ccccc2c2nnc(SCC(=O)NC(C(=O)OC)C(C)C)nc21 (stereo unspecified),1.6
O=C1NC(Nc2nc3ccccc3s2)(C(F)(F)F)C(=O)N1C1CCCCC1 (stereo unspecified),i
Cc1ccc(CNC(=O)c2ccc(Cn3nc(C)c(Cl)c3C)o2)cc1,i
O=S(=O)(CCc1nc2ccccc2o1)c1ccc(Cl)c(Cl)c1,0.2
Cc1ccccc1-c1noc(-c2ccc(Cl)cc2)n1,i
CCOC(=O)C1CCN(CC(=O)Nc2c(C(=O)OC)[nH]c3cccc(C)c23)CC1,0.9
CC(=O)c1sc(NC(=O)c2ccc(Cn3cc(Br)cn3)o2)nc1C,0.2
CC(=O)c1c(N(C)C)ccnc1C(F)(F)F,i

# Bioassay records deposited in PubChem BioAssay by SRMLSC.

# The list is partial; rates above refer to the full screens.
